# Bioassay records from PubChem.
# TRPML1 inh: inhibitors of human TRPML1 channel; Q9GZU1; TRPML1-inducible cells, Ca2+ dye fluorescence, FDSS; active compounds read low; inhibition of EC80 agonist-evoked calcium signal; activity change, negative = inhibition, % (test concentration not listed); 0.02% of 390,000 active; AID 624415; in the data active means activity change below about -50%; inconclusive means about -30% to -50%; inactive means above about -30%;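 further: stimulus is agonist 54-4 at its EC80 concentration; on the % scale 0 is the no-effect control and ±100 the full control effect; compound concentration not given in the record; the text of the record puts the active cut at -80%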
# Target sequence (Q9GZU1 whole entry, looked up): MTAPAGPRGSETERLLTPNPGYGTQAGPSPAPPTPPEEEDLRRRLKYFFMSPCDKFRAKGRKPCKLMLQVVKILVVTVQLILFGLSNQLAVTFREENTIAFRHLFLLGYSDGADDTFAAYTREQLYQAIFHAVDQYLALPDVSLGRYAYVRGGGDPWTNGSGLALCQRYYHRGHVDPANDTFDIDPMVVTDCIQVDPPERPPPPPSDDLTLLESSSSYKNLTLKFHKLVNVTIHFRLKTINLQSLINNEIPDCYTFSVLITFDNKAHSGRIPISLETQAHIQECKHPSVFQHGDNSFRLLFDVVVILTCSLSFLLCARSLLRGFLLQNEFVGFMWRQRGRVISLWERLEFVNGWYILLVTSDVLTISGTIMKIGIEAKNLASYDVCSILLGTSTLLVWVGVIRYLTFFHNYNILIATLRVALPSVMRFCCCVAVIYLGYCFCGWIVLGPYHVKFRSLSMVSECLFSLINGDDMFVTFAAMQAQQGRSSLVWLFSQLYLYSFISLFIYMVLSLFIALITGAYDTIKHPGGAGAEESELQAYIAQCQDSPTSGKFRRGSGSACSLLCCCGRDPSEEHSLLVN
#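 Tet-induced TRPML1-DL cells loaded with Ca8 no-wash calcium dye were read kinetically on FDSS. Compound addition was followed by EC80 agonist 54-4 (4 uM final); inhibition was read over 110 s.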
# Six1-Eya2 inh: Six1/Eya2 interaction inhibition. AID 651725. 0.56% of 360,000 active. AlphaScreen GST-Six1/His-Eya2 binding, biochemical; active compounds read low; control for the full effect not named in the record. activity change, % (concentration not given with the values). Q15475+O00167; in the data active = activity change below about -65%; inconclusive = about -30% to -65%; inactive = above about -30%; further: on the % scale 0 is the no-effect control and ±100 the full control effect
#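 Homogeneous AlphaScreen proximity assay pairing GST-Six1 with His-tagged Eya2 (added as 5X mix: 250 nM and 500 nM) in 50 mM Tris pH 8.0, 300 mM NaCl, 1 mM TCEP. Glutathione donor and nickel acceptor beads; 1 h, 37 °C, dark.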
# CtBP-E1A inh: inhibitors of CtBP/E1A interaction | AlphaScreen GST-E1A/His-CtBP binding, 1536-well; active compounds read low; control for the full effect not named in the record | 0.49% of 340,000 active | activity change, % (concentration not given with the values); in the data active means activity change below about -65%; inconclusive means about -30% to -65%; inactive means above about -30%; further: on the % scale 0 is the no-effect control and ±100 the full control effect
#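 Protein mix (5X: 125 nM each GST-E1A, His-CtBP) was incubated with pinned compound 2 h at 37 deg C in dark, in 50 mM Tris pH 8.0 buffer with 300 mM NaCl. Glutathione donor and nickel acceptor beads followed; AlphaScreen signal read after 1 h.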
# D2 potentiator: human D2 receptor positive allosteric modulation | P14416 | potentiation, % (test concentration not listed) | DiscoveRx D2 beta-arrestin cells, luminescence, 90 min; 100% = 57 uM dopamine signal | 0.23% of 360,000 active; active = potentiation of 50% or more; inconclusive = 30% to 50%; inactive = 30% or less;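 further: compound concentration not given in the record; tested on top of an EC20 dose of dopamine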
# Target sequence (P14416 whole entry, looked up): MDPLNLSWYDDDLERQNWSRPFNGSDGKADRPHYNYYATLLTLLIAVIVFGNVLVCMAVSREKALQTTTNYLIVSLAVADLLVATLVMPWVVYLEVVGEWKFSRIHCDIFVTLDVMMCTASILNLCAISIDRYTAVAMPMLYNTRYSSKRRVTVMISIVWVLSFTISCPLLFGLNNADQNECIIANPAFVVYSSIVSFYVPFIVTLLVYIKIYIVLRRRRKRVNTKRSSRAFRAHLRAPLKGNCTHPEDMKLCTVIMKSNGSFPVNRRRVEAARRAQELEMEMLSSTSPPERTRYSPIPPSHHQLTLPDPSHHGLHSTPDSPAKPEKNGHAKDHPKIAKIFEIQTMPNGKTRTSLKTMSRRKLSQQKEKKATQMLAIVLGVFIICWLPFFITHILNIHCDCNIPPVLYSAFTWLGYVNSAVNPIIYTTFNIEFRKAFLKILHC
#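 D2 cells co-treated with compound plus 50 nM dopamine (EC20) for 90 min at 37 deg C to detect potentiation. Beta-arrestin recruitment was read as enzyme-fragment luminescence after 1 h at ambient temperature. Full response was set by 57 uM dopamine.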
# TRPML1 agonist: activates the human TRPML1 channel. Q9GZU1. TRPML1-expressing cells, Ca2+ dye fluorescence, FDSS; host cell line not named in the record; reference of the full effect not given here. activation, % (test concentration not listed). 0.12% of 410,000 active; in the data active = activation above about 50%; inconclusive = about 30% to 50%; inactive = below about 30%; further: 0% is about no effect; the text of the record puts the active cut at 80%
#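 TRPML1-DL cells, Tet-induced overnight (~16 h, 37 degrees C), loaded 45-90 min at room temperature with Ca8 no-wash calcium dye plus quencher. FDSS fluorescence: 10 s baseline, compound pin-transfer, 110 s agonist read, then EC80 54-4 (4uM final) and 110 s antagonist read.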
# TRPV1 potentiator: enhances activation of the human vanilloid receptor TRPV1. Q8NER1. TRPV1-expressing cells, Fluo-8 calcium influx, capsaicin EC20 potentiation; host cell line not named in the record; control for the full effect not named in the record. potentiation, % at 8.33 µM. 0.02% of 320,000 active; active means potentiation above 80%; inconclusive means 30% to 80%; inactive means below 30%; further: 0% is about no effect
#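 Fluo-8 calcium influx in TRPV1-expressing cells, kinetic read (ex 480/em 520 nm). Compound added and read 3 min for agonist activity, followed by capsaicin at EC20 final and 2 min further read for enhancement.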
# * marks the source's active call; other numbers are inactive results; ? = inconclusive; . = no result given; & = joins results of further samples. Compounds as they come, and some 0.95% of all compounds hit somewhere here.
SMILES,TRPML1 inh,Six1-Eya2 inh,CtBP-E1A inh,D2 potentiator,TRPML1 agonist,TRPV1 potentiator
CN1CCCC(OC(=O)c2ccccc2Br)C1 (stereo not given),2,4,.,-36,-0.7,2
CCC(C)NC(=O)c1ccc(CSc2nc3ccncc3n2Cc2ccc(F)cc2)cc1 (stereo not given),-5,-5,5,0,0.4,5
CC(C)(C)NS(=O)(=O)c1cccc(S(=O)(=O)c2cccc(S(=O)(=O)NC(C)(C)C)c2)c1,7,0,17,-5,-0.3,-3
CCn1c2ccccc2c2cc(NC(=O)C(C)Oc3ccc(OC)cc3)ccc21 (stereo not given),-3,-9,-17,-13,1.2,3
CCCC1=C(C(=O)OCC)C(c2ccc(OC)c(CSc3ccccn3)c2)C(C#N)=C(N)O1 (stereo not given),-2,-8,-9,-25,1.2,3
O=C(COC(=O)COc1ccccc1[N+](=O)[O-])Nc1cccc(Br)c1,4,-2,-1,14,-0.3,6
C=CCn1c(C)cc(C(=O)COc2ccc(C)nc2[N+](=O)[O-])c1C,-9,-13,2,-4,-1.4,-14
CCOc1ccccc1NC(=O)COC(=O)c1cccc(-c2ccc(OC(C)=O)cc2)c1,14,20,5,-5,0.2,11
Cc1cc(Cl)ccc1Oc1ccc(C(N)=O)cc1[N+](=O)[O-],-9,-5,-18,11,0.1,-22
COc1ccc2c(c1)SCC/C2=C\CN1C(=O)CCC1=O,3,-6,15,-17,0.5,1
Cc1ccc(S(=O)(=O)Nc2cccc(-c3ccc(N4CCCCCC4)nn3)c2)cc1,22,-7,.,-10,0.5,3
CCOC(=O)c1cc(-c2cccs2)nn1CCC#N,1,6,-1,10,0.6,?
NC(=O)CCn1nc(-c2ccccc2)c2ccccc2c1=O,24,13,4,-18,0.4,3
O=C(Oc1ccc2c(c1)C(=O)c1ccccc1CO2)c1ccccc1,?,17,16,5,0.3,7
Cc1ccsc1/C=N/N1CCN(c2ccccc2)CC1,9,?,-5,-3,6.2,-18
Cn1c(=O)[nH]c(=O)c2c1nc(Br)n2Cc1ccccc1Cl,-5,7,-7,5,-0.2,-15
CC(=O)c1cccc(-c2cnc3c(NC=O)cc(-c4ccccc4)cn23)c1,57,-24,-14,-5,0.6,.
O=C(NCc1cccnc1)C1c2ccccc2C(=O)N1Cc1ccccc1 (stereo not given),-17,7,-7,-7,0.2,4
COCCN=C1N[C@@H](c2ccccc2)C(C(=O)OC)=C(C)N1Cc1ccccc1,4,0,3,-11,-0.2,-6&6
CN(CC1CCOCC1)C(=O)c1ccc2nc(Cc3cccc(Cl)c3)oc2c1,-5,10,-3,12,0.5,-23
CCOc1ccc(-n2c(SCC(=O)Nc3ccc(OC)cc3)nc3sc4c(c3c2=O)CCN(C)C4)cc1,22,-10,-14,-8,-0.7,-8
CCOc1cc(C2/C(=C(\O)c3cc(C)ccc3C)C(=O)C(=O)N2CCN(C)C)ccc1O (stereo not given),-9,0,2,-5,-0.1,-5
CCn1ncc(CN2CCC(n3nccc3NC(=O)c3ccccc3Cl)CC2)c1C,4,-16,-2,-24,-0.7,.
N#CC(C#N)=Cc1ccc(OCC(=O)N2CCOCC2)cc1,-18,3,9,-11,0.3,3
O=C(Nc1nccs1)c1cccc(S(=O)(=O)N2CCCC2)c1,8,-4,-14,-6,0.6,12
O=C1/C(=C/c2ccccc2F)SC(=S)N1CC(=O)N1CCCCC1c1cccnc1 (stereo not given),13,-27,.,-8,3.2,-1
COc1ccc(C(=O)N/N=C/c2ccc(OC)c(COc3ccc(F)cc3)c2)cc1,27,-1,4,-26,1.6,5
COc1nccnc1NS(=O)(=O)c1ccc(NS(=O)(=O)c2ccc(NC(C)=O)cc2)cc1,30,-2,-2,-6,3.0,10
COc1ccccc1CNC(=O)c1ccc(-c2ccccc2)cc1,2,2,4,3,-0.5,16
NS(=O)(=O)c1cccc2c1c([N+](=O)[O-])cc1nc(O)c(O)nc12,-15,5,3,-4,0.6,-13

# Taken from the results shown (two entries):
SMILES,TRPML1 inh,Six1-Eya2 inh,CtBP-E1A inh,D2 potentiator,TRPML1 agonist,TRPV1 potentiator
COc1ccccc1CNC(=O)c1ccc(-c2ccccc2)cc1,2,2,4,3,-0.5,16
NS(=O)(=O)c1cccc2c1c([N+](=O)[O-])cc1nc(O)c(O)nc12,-15,5,3,-4,0.6,-13

# The listing continues.
SMILES,TRPML1 inh,Six1-Eya2 inh,CtBP-E1A inh,D2 potentiator,TRPML1 agonist,TRPV1 potentiator
CCN(C(=O)COC(=O)c1ccc(Cl)c(N)c1)C1CCS(=O)(=O)C1 (stereo not given),-1,-4,.,-7,0.1,-7
CCCSC1=C(C#N)C(c2ccccc2C)CC(=O)N1 (stereo not given),2,2,2,13,-1.0,-10
Cc1cc(=O)oc2ccc(OCC(=O)NCc3ccco3)cc12,16,-6,-3,-12,-0.3,5
Cc1nn(-c2ccc(Cl)nn2)c(=O)c2ccccc12,-5,6,-12,3,2.4,7
CC(C)[C@H](NC(=O)OC(C)(C)C)C(=O)NCC1CCC(C(=O)N[C@@H](Cc2ccccc2)C(=O)O)CC1 (stereo not given in full),2,12,-12,-8,-1.2,-1
Cc1ccc(CC2C(=O)N(c3ccccc3)C(=O)C2C)cc1 (stereo not given),-12,11,2,-3,0.1,-8
COc1cccc(OCCOc2ccccc2OC(C)C)c1,-9,24,42,-23,1.3,23
Cc1cc(N2CCC(C(=O)NCC3CC3)CC2)nc(-c2ccccc2)n1,-13,-1,-3,16,-0.7,-17
COc1ccc(NC(=O)C2CCCN2C(=O)Nc2ccccc2)cc1OC (stereo not given),-1,6,11,-5,-0.5,-4
O=C(O)CCCC[C@@H]1SC[C@@H]2NC(=O)N[C@@H]21,.,7,9,4,.,.
Cc1nc(C(=O)NNC(=O)Nc2ccc(Cl)cc2)cs1,2,7,10,-4,-0.3,-3
COC(=O)NC1CCC(CC2CCC(NC(=O)OC)CC2)CC1 (stereo not given),-18,-12,5,-18,-0.6,-12
Cc1ccc(C2CC2c2n[nH]c(=S)n2-c2ccc(Cl)cc2)cc1 (stereo not given),0,-11,-7,-26,3.7,?
CCCCN1CCN=C1Nc1ccccc1,8,1,12,-9,0.1,23
O=C(OCC#CCSc1nc2ccccc2s1)c1ccco1,29,33,29,-4,4.0,29
Cc1nn(C2CCS(=O)(=O)C2)c(Cl)c1/C=C/C(=O)OCC(=O)c1cc(C)n(-c2ccc(F)cc2)c1C (stereo not given),0,-2,.,-10,0.4,-4
O=C(OCc1ccccc1Cl)C1CC(=O)N(Cc2ccco2)C1 (stereo not given),29,0,11,-23,-0.9,-21
O=[N+]([O-])c1ccc(C=CC=Cc2ccccc2)cc1,-2,-12,-6,-4,0.7,.
COc1ccc(Cl)cc1C(=O)NNC(=O)c1nc2nc(C)cc(C)n2n1,2,4,11,-4,-0.3,-5
CCC(C(=O)NC1CCCCC1)n1nc(C)c2c(C)n(-c3ccccc3)nc2c1=O (stereo not given),5,1,4,-5,-0.7,5

# Ordered by SMILES length (ascending): three of the compounds above
SMILES,TRPML1 inh,Six1-Eya2 inh,CtBP-E1A inh,D2 potentiator,TRPML1 agonist,TRPV1 potentiator
Cc1ccsc1/C=N/N1CCN(c2ccccc2)CC1,9,?,-5,-3,6.2,-18
CCn1c2ccccc2c2cc(NC(=O)C(C)Oc3ccc(OC)cc3)ccc21 (stereo not given),-3,-9,-17,-13,1.2,3
CCOc1cc(C2/C(=C(\O)c3cc(C)ccc3C)C(=O)C(=O)N2CCN(C)C)ccc1O (stereo not given),-9,0,2,-5,-0.1,-5

# Next entries
SMILES,TRPML1 inh,Six1-Eya2 inh,CtBP-E1A inh,D2 potentiator,TRPML1 agonist,TRPV1 potentiator
O=C(CSc1nc(C(F)(F)F)cc(=O)[nH]1)NCC1CCCO1 (stereo not given),-1,8,5,-7,-0.4,15
COc1ccc(NC(=S)NN2CCN(C)CC2)cc1,6,1,7,-15,-0.4,-4
COc1ccc(CN(CC2CCC(C(=O)O)CC2)C(=S)Nc2ccc(C)c(Cl)c2)cc1 (stereo not given),-13,-2,.,-24,2.6,6
CN(C)/C=N/c1c(C#N)nnn1Cc1ccccc1,-15,3,5,-4,-1.2,-9
O=C(Nc1ccc2oc(-c3ccccc3)nc2c1)c1ccco1,-7,-9,-9,-14,0.0,-8
NC(=O)CSc1nnc(Cc2cccs2)n1C1CCCCC1,1,-1,4,-2,-0.9,3
CCC(=O)Nc1ccc(NC(=O)c2ccccn2)cn1,28,9,3,-9,0.3,2
CCN(CC(=O)Nc1c(F)cccc1F)C(=O)c1nn(C)c(=O)c2ccccc12,4,7,0,0,0.3,-6
CCCc1[nH]nc2c1C(C1CC=CCC1)C(C#N)=C(N)O2 (stereo not given),-1,1,10,-23,0.5,-3
CCCCC(=O)N(Cc1ccc(F)cc1)C1CCS(=O)(=O)C1 (stereo not given),0,0,.,7,1.0,-3
O=C(COC(=O)c1ccc(S(=O)(=O)N2CCOCC2)cc1)NC1CCCC1,6,7,0,1,-0.4,1
CCN1CCN(C(=O)c2nn(-c3ccc(C)cc3)c(=O)c3c2c2ccccc2n3C)CC1,-11,-3,-1,-21,1.2,3
CN(C)C(=O)CSc1nnc(-c2ccco2)n1-c1ccccc1,-9,14,.,-19,-0.6,.
CC(=O)Nc1cccc(NC(=O)/C=C/c2ccc(S(=O)(=O)N3CCOCC3)cc2)c1,-10,7,-26,-20,-0.3,.
CN1CCN(CC(=O)Nc2ccccc2[N+](=O)[O-])CC1,-25,5,2,-22,0.3,-5
CC1CC(C)CN(c2ncc3c(n2)CC(c2ccc(Cl)cc2)CC3=O)C1 (stereo not given),-2,2,-8,-5,-0.2,4
Clc1ccc(-c2cc(CN3CCOCC3)no2)cc1,-30,2,6,-2,0.7,-8
C/C=C/C=C\C(=O)Nc1cccc(C2=NOC3(C2)C[C@@H](C(N)=O)N(C(=O)c2cc([N+](=O)[O-])cc([N+](=O)[O-])c2C)C3)c1 (stereo not given in full),7,-7,-9,9,-0.6,22
CCN(CC)P(=O)(/C(Cl)=C\Nc1c(C)n(C)n(-c2ccccc2)c1=O)N(CC)CC,-16,5,1,-12,1.0,4
CCN(c1ccccc1)S(=O)(=O)c1ccc(C(=O)N(C)CCc2ccc(OC)c(OC)c2)cc1,-2,0,5,-1,-0.4,21
COCC(C)n1c(C)cc(C(=O)COC(=O)c2c(C)nn(-c3ccccc3)c2C)c1C (stereo not given),4,-10,-17,1,1.0,15
COc1ccc(S(=O)(=O)N(C)CC(=O)Nc2ccc(C(F)(F)F)cc2)cc1Cl,-6,3,4,5,3.5,-26
CCc1ccc(N(C(=O)Cn2nnc(-c3ccccc3)n2)C(C(=O)NC2CCCCC2)c2ccccn2)cc1 (stereo not given),6,2,-13,6,-0.1,-10
CC(C)C[C@H]1CNC(=S)N1C[C@H]1CCCN1C[C@H](Cc1ccc(O)cc1)N1C[C@H](CC(C)C)N(CC2CCCCCC2)C1=S,-2,-17,-14,0,-0.5,.
Cc1cccc(CCNC(=O)C2CCC(=O)N(Cc3ccccc3F)C2)n1 (stereo not given),4,0,6,9,-0.4,.
Cc1ccc(NC2=C(C(=O)c3ccccc3)N(C)S(=O)(=O)c3ccccc32)cc1,1,?,?,-30,3.3,-1
